Bioassay records (PubChem BioAssay)
NPYLR7 agonist = activates Aedes aegypti NPYLR7 receptor. HEK293T NPYLR7/Galpha15, GCaMP6s calcium fluorescence. activation, % at 10 µM. actives 0.15% (n = 270,000); in the data active = activation above about 40%;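 note: 0% = vehicle and 100% = reference agonist at the receptor; some compounds past the cut are filed as inactive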
NPYLR7 agonist max-min = second read-out of NPYLR7 agonist, no call of its own (marks repeat the call); activation, %; measured here: Max-Min RFU normalised activation; some inactives read as strong as hits;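 span of the calcium signal over five minutes; 0% = vehicle and 100% = native peptide agonist; compound fluorescence can raise it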
* hit, by the source's call; & = joins results of further samples. Some of the compounds tested; count on the stated rates, not on these rows.

The first 5 entries, to show the layout:
SMILES	NPYLR7 agonist	NPYLR7 agonist max-min
CCOC(=O)Nc1ccc(C(=O)OCC(=O)N(C)C2CCC(C)CC2)cc1 (stereo unspecified)	-5	-5
O=C(c1cccnc1Cl)N1CCN(c2nccc(-c3cccs3)n2)CC1	26	34
CC(C)(NC(=O)c1cccs1)C(=O)NCC(c1ccncc1)N1CCOCC1 (stereo unspecified)	3	1
COCC(=O)Nc1cc(-c2ccc(C)cc2)cc(-c2ccccc2)n1	8	3
C=CCn1c(=O)c2c(nc3n2CC(C)=NN3Cc2ccc(Cl)cc2)n(C)c1=O	3	-2

This part in full, from the first entry:
SMILES	NPYLR7 agonist	NPYLR7 agonist max-min
CCOC(=O)Nc1ccc(C(=O)OCC(=O)N(C)C2CCC(C)CC2)cc1 (stereo unspecified)	-5	-5
O=C(c1cccnc1Cl)N1CCN(c2nccc(-c3cccs3)n2)CC1	26	34
CC(C)(NC(=O)c1cccs1)C(=O)NCC(c1ccncc1)N1CCOCC1 (stereo unspecified)	3	1
COCC(=O)Nc1cc(-c2ccc(C)cc2)cc(-c2ccccc2)n1	8	3
C=CCn1c(=O)c2c(nc3n2CC(C)=NN3Cc2ccc(Cl)cc2)n(C)c1=O	3	-2
COc1ccc(CCNC(=O)c2cccnc2N2CCN(C(=O)C3C[C@H]3c3ccccc3)CC2)cc1OC (stereo partly specified)	20	4
CC(C)(CO)NC(=O)C12CC3CC(CC(Br)(C3)C1)C2	2	1
COc1ccc2c(c1)c(C(=O)NCCSc1nnnn1C)c(C)n2C	16	7
CCOCCCNS(=O)(=O)c1c(C)nc2sccn2c1=O	3	-1
O=C1NC2(CCN(Cc3ccccc3[N+](=O)[O-])CC2)Nc2ccccc21	5	32
CCNc1ncc(-c2n[nH]c(CCc3ccccc3)n2)cn1	28	13
O=Nn1c2ccccc2c2ccccc21	2	1
Cc1cccc(C(=O)OCC(=O)N2C(C)(C)CC(=O)CC2(C)C)c1C	3	3
C=C(C)NC(=S)Nc1nccs1	-19	-27
CC(C)(C)c1ncc2c(n1)CN(C(=O)CCc1cnccn1)C2	0	-1
CCCCn1c(CN2CCC3(C=Cc4ccccc43)CC2)cnc1S(=O)(=O)CC	1	-5
C=CCNC(=O)C(NC(=O)c1ccccc1)C1CCN(C(=O)c2ccc(C(F)(F)F)cc2)CC1 (stereo unspecified)	6	6
CS(=O)(=O)c1ccc(-c2nccc(N3CCC(O)CC3)n2)cc1	11	7
Cc1cccnc1NC(=O)C1CCCN(C(=O)c2c(C)oc(C)c2C)C1 (stereo unspecified)	5	3
COc1cccc(C(=O)N(Cc2c(-c3ccccc3)noc2N2CCSCC2)C2CC2)c1	8	11
Cc1noc(Cl)c1CCC(=O)Nc1cc(F)c(N(C)C)c(F)c1	-4	-6
O=C(CCc1nc2ccccc2[nH]c1=O)OCc1c(F)cccc1Cl	2	1
O=S(=O)(O)CCSSCCS(=O)(=O)O	-5	-5
CN(C)c1ccc(CC(=O)N2CCC(n3cnc4ccc(F)cc43)CC2)cc1	-4	-7
CC(C)NCC(O)c1ccc(NS(C)(=O)=O)cc1 (stereo unspecified)	1&-17&-11&0	8&-20&-11&1

More entries:
SMILES	NPYLR7 agonist	NPYLR7 agonist max-min
CCOc1cc(C(=O)Nc2nc3ccc(F)cc3s2)cc(OCC)c1OCC	-2	-7
O=C(NCc1ccc2c(c1)OCO2)c1cc2cc(Cl)cc(Cl)c2oc1=O	-4	-3
CC(=O)Nc1ccc(S(=O)(=O)N2CCN(c3nc(C)nc(C)c3Cc3ccccc3F)CC2)cc1	7	9
O=C(CNc1cc(Cl)cc(Cl)c1)N(c1ccccc1)C1CCS(=O)(=O)C1 (stereo unspecified)	6	7
CCOC(=O)C1=C(C)N(c2ccccc2)C(=S)NC1c1ccc(C#N)cc1 (stereo unspecified)	2	-1
COc1ccc(-n2c(-c3ccccc3)cc(C(=O)N3CCC(n4c(=O)[nH]c5ccccc54)CC3)c2C)c(OC)c1	16	20
CCN(CC)c1onc(-c2ccccc2)c1CN(CCCOC)C(=O)Nc1ccc(C)cc1	-1	4
NCCN1C(=O)SC(=Cc2ccc3c(c2)OCO3)C1=O	1	-1
CCOC(=O)CN1CCN(c2cc(OC)cc(OC)c2)C(=O)C1C (stereo unspecified)	0	1
CC(C)SC(NC(=O)OCc1ccccc1)C(=O)NN(C)c1ccccc1 (stereo unspecified)	-9	-13
CC(O)C(C)SC1CCN(c2c(F)cccc2F)C1=O (stereo unspecified)	0&1	-3&0
O=C(NCC1CCCCC1)c1ccc(Nc2cccc(C(F)(F)F)c2)nc1	-7	-12
CC(C)(C)NC(=O)N1CCC2(CC1)SCCN2C(=O)c1ccc(Cl)cc1Cl	9	7
COc1ccc(N2C(=O)CSC2c2ccc(C(C)C)cc2)cc1 (stereo unspecified)	-6	-7
Cc1cc(C(=O)NC2CCN(C(=O)/C=C/c3cccc(F)c3)CC2)on1	10	3
O=[N+]([O-])c1cccc(C=Nc2ccccc2)c1	-5	-9
C=CCN(CC#Cc1ccccc1)Cc1ncc[nH]1	2	0
COCCn1cc(NC(=O)NCCc2ccccc2)c2ccccc21	16	9
O=C(NCCCN1CCCC1=O)c1ccc(-c2cc(-c3ccc(N4CCCCC4)cc3)n[nH]2)cc1	-2	-7
Cc1cccc(N=Cc2nc(/C=C/c3cccc([N+](=O)[O-])c3)oc2O)n1	-2	2
C=C(C)CNC(=O)c1cncn1-c1ccc(-c2ccc(F)c(F)c2)cc1	22	24
O=C(NCc1ccc2c(c1)OCO2)c1ccccc1SCc1ccco1	9	2
COc1ccc(NC(C)=O)cc1NC(=O)N(Cc1ccccc1)C1CC1	-5	-10
O=C(O)[C@H]1C[C@@H](C(=O)Nc2ccc(F)cc2)CN(C(=O)C2CCOCC2)C1	0	2
CN1C(=O)NC(c2cccc(Oc3ccccc3)c2)C2=C1CN(C(Cc1ccccc1)C(=O)N1CCc3ccccc3C1)C2=O (stereo unspecified)	1	7

Additional records follow:
SMILES	NPYLR7 agonist	NPYLR7 agonist max-min
Cc1cc(NC(=O)C(C)NC(C)c2ccccc2F)on1 (stereo unspecified)	8	5
Cc1cc(NC(=O)C2(C)CCN2C(=O)C2CCCCC2)no1 (stereo unspecified)	5	3
O=C1C2CCCN2C(c2ccc(Cl)cc2Cl)N1c1nccs1 (stereo unspecified)	10	7
Cc1cc(=O)oc2cc(OC(C)C)ccc12	9	8
CC(Nc1ncnc2sccc12)C1CC2CCC1C2 (stereo unspecified)	4&-5	1&-6
CCCCCCCC(=O)Nc1c(-c2ccc(Cl)cc2)nc2ccccn12	-1	1
COC[C@@H]1CCCN1CC(=O)NCCc1cccc(Cl)c1	10	8
CC(C)Nc1ccc(C(=O)NCCCCc2ccccc2)cn1	-6	-12
CCCCNC(=O)OC(C)CNC(=O)OC (stereo unspecified)	0	7
Cc1ccc(OCCCn2c(=O)sc3ccccc32)cc1	4	5
CCN(CC)C(=O)Cn1cc(C(=O)NCCc2ccco2)nn1	4	-1
O=C(CCc1ncc(-c2ccc(Cl)cc2Cl)o1)NC1CC1	4	2
CC(C)C(C)N(Cc1cccc(C(F)(F)F)c1)Cc1nc(C(=O)NCCN2CCOCC2)co1 (stereo unspecified)	16	20
CNc1cncc(-c2ccc(F)c(F)c2)n1	7	4
CN1Cc2c(C(=O)OC(C)(C)C)ncn2-c2ccsc2C1=O	-8	-10
CCOC(=O)c1cc(-c2cccc(NC(=O)COc3ccc(Cl)cc3)c2)n(-c2ccccn2)n1	4	-1
Cc1ccc(S(=O)(=O)NCC(C)n2nc(C)c(C)c2C)cc1 (stereo unspecified)	6	2
CC(C)N(Cc1cc(NC(=O)c2cccs2)ccc1N(C)C)S(C)(=O)=O	-11	2
NC(N)=NCCN1CCOCC1	1	15
CCOc1nc(-c2cccc(C(F)(F)F)c2)n(-c2cccc(NS(=O)(=O)c3ccc(F)cc3)c2)n1	-2	14
O=C(C=Cc1ccco1)N1CCN(Cc2ccccc2)CC1	-5	-10
Nc1cc(C(=O)N2CCOC(Cc3cccc(C(F)(F)F)c3)C2)ccn1 (stereo unspecified)	4	2
COCc1c(Br)c(C)nc(OCC(=O)N/N=C\c2c(O)ccc3ccccc23)c1C#N	9	20
CNS(=O)(=O)c1ccc(CN2CCCC2c2ccc(F)cc2)cc1 (stereo unspecified)	-2	-4
Cc1ccc(C)c(NC(=O)C(c2ccccc2)N2CCN(S(=O)(=O)N(C)C)CC2)c1 (stereo unspecified)	1	-2

Compound profiles (already shown):
Results for `O=C(CCc1ncc(-c2ccc(Cl)cc2Cl)o1)NC1CC1` → NPYLR7 agonist: 4; NPYLR7 agonist max-min: 2
Results for `CN1Cc2c(C(=O)OC(C)(C)C)ncn2-c2ccsc2C1=O` → NPYLR7 agonist: -8; NPYLR7 agonist max-min: -10
Results for `CC(Nc1ncnc2sccc12)C1CC2CCC1C2` (stereo unspecified) → NPYLR7 agonist: 4&-5; NPYLR7 agonist max-min: 1&-6

New compounds follow:
SMILES	NPYLR7 agonist	NPYLR7 agonist max-min
Cc1ccsc1CN(C)c1cc(N(C)C)ncn1	-7	-15
Cc1nn2c(=O)[nH]c(SCC(=O)Nc3ccccc3F)nc2c1-c1ccccc1	17	9
CCCCS/C=C1\CCCC(C)(C)C1(O)CSc1nccn1C (stereo unspecified)	5	6
Cc1cc(C(=O)NC2(C(N)=O)CCCCC2)c(C)s1	2	36
C=CCn1c(=NC(=O)CCC)sc2cccc(OCC)c21	0	-2
CC(Cl)C(=O)N1CCC(C(=O)NCCNC(=O)c2ccccc2)CC1 (stereo unspecified)	4	9
O=C(Nc1cccc(-c2nc3ccccc3[nH]2)c1)c1cc2ccccc2oc1=O	-3	-7
O=C1NC(CCC(=O)N2CC=CCC2)C(=O)N(Cc2ccccc2)c2ccccc21 (stereo unspecified)	1	13
c1ccc(Nc2nc(-c3cccnc3)nc3ccccc23)cc1	6	14
CC(C)Cc1nc(N2CCCN(C(=O)c3ccc(Cl)cc3Cl)CC2)c2c(-c3cccc(C(F)(F)F)c3)noc2n1	3	2
COc1ccccc1CCN1CCC(CN(C)C(=O)C2=NNC(=O)CC2)CC1	1	1
CCCCCNC(=O)c1cc(-c2ccc(OCC)cc2)nc2ccccc12	8	1
CC(C)n1nccc1NC(=O)c1cc(C2CC2)nn1-c1ccccc1	7	6
COc1cccc(-c2nc3c(NCCc4ccccn4)nccc3[nH]2)c1F	-7	-12
O=C(CNC(=O)Cc1ccc(Cl)cc1)N=Nc1c(O)[nH]c2ccc([N+](=O)[O-])cc12	-3	-8
Cc1cc(C)n(CCNc2nc3c(C(C)C)cccc3s2)n1	2	0
C(=C\CSC1=NCCN1)/CSC1=NCCN1	9	4
CC(=O)Nc1nnc(CCS(=O)(=O)c2ccc(Cl)cc2)s1	2	-8
NC(c1ccc(-c2ccccc2)cc1)C(F)(F)F (stereo unspecified)	14	6
CCCC(CCC)C(=O)NCCCN(C)c1ccccc1	-13	-16
COc1ccc(CC(N)c2csc(Nc3nncc4ccccc34)n2)cc1 (stereo unspecified)	-5	-10
CCn1ncc2[nH]c(-c3cnn(C)c3-c3ccccc3)nc21	-4	-7
CC1CN(Cc2cc3c(cc2O)CCC3)CC(c2ccccc2)O1 (stereo unspecified)	6&-2	2&25
O=C(CN1CCN(CCC(=O)Nc2ccccc2F)CC1)Nc1ccc(F)cc1	0	4
COCCN(CC(=O)N1CC(=O)N(c2cccc(C)c2)C1)C(=O)c1ccc(Cl)c(Cl)c1	0	9

Additional results
SMILES	NPYLR7 agonist	NPYLR7 agonist max-min
O=C(Nc1ccccc1N1CCCC1)c1ccc2c(c1)OCCCO2	1	-1
COc1ccsc1C(=O)Nc1ncc(Cl)s1	8	3
Cc1ccc(C(=O)N2CCC3(CC2)C(=O)N(CC(=O)NCc2ccco2)CN3c2ccccc2)cc1[N+](=O)[O-]	14	17
CCOc1cc(C=C2N=C(c3ccc(C)c(C)c3)OC2=O)ccc1OC(C)C(=O)N(C)C (stereo unspecified)	-1	-1
CN(C)c1ccc(NC(=O)c2cccc(F)c2)cc1CN(C(=O)c1cccc(F)c1)C1CCCCC1	2	4
CCc1nc(SCC(=O)NCc2nc(C)cc(C(F)(F)F)n2)n[nH]1	8	6
CCCN(CC(=O)N(CCc1ccc(OC)c(OC)c1)Cc1ccc(C)s1)C(=O)Nc1cccc(F)c1	-6	-8
CCCc1nnc(-c2cc3ccccc3n2CC(=O)NCCOC)o1	4	3
Cc1cc(C(=O)CCC(=O)N2CCN(C(=O)c3ccco3)CC2)c(C)s1	7	7
Cc1ccc(Cc2nc(N3CCN(C(=O)C(Cl)c4ccccc4)CC3)c3c(C)nn(-c4ccc(F)cc4)c3n2)cc1 (stereo unspecified)	-4	-1
COc1cc(=O)n(-c2ccccc2C)nc1C(=O)N(C)Cc1ccccc1	-6	-5
COc1ccc(CCNC(=O)NCc2nnnn2-c2ccccc2)cc1	-6	-6
C=CCn1c(=S)[nH]c2ncccc2c1=O	5	4
COn1c(C)c(C)c2c3no[n+]([O-])c3ccc21	-1	-3
CCn1cc(CN(Cc2cc3c(cc2Cl)OCO3)CC(C)C)cn1	5	10
CCCCN(CCCC)C(=O)Nc1ccc(S(C)(=O)=O)cc1	6	3
COc1ccc(CN(CCC(C)C)CC(O)COc2ccccc2)cc1OC (stereo unspecified)	20	28
CCOc1ccccc1C(=O)N1CCN(Cc2nnnn2-c2ccc(OC)cc2)CC1	-2	-3
O=C(NCc1ccco1)c1cc2cc(Cl)ccc2oc1=O	-4	-11
Cc1ccccc1-c1cccc(C(=O)N2CCc3c(nc[nH]c3=O)C2)c1	-1	-3
CC(C)(CN1CCN(c2ncc(Cl)cn2)CC1)N1CCOCC1	7	4
c1ccc2sc(CSc3nnc4c(n3)[nH]c3ccccc34)nc2c1	-6	-9
O=C(COC1CCCC1)Nc1ccc2c(c1)S(=O)(=O)C=C2	-3	-3
